S aureus helic = blocks Staphylococcus aureus DNA helicase; purified S. aureus helicase, fluorescence unwinding assay; about half of the hits fall short of the stated cut; inhibition, %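 (tested at about 80 µM)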; 120,000 tested, 0.05% active; AID 485395;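 active means both duplicates at 50% or more, or one of them with a favoured structure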;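 further: 0% = mean of negative control wells and 100% = mean of positive control wells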
MgrA-DNA mod = S. aureus MgrA-DNA binding modulation | AID 602314 | inhibition, %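 (about 10 µg/mL by stock and volumes)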 | fluorescence polarization | 84,000 tested, 0.13% active;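 active means above 50% in either of two replicates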;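 further: 0% = protein plus DNA without compound and 100% = DNA alone without protein; higher means less MgrA bound to DNA so lower polarization; one replicate is shown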
Active calls of the source: *; nt = not tested or not shown. A portion of the library, so the mix of outcomes need not match the whole.

MgrA-DNA mod	S aureus helic	Molecule
0.5	nt	Cc1cc([N+](=O)[O-])c2[nH]c3c(c2c1)CCNC3=O
0.2	nt	CCCCCc1ccc(C(=O)CCC(=O)O)cc1
0.8	nt	Cc1cc(C(=O)Nc2ccc(O)c(-c3nc4ccccc4s3)c2)ccc1[N+](=O)[O-]
-1.5	3.0	COc1cccc(C(=O)NCC2(c3ccccc3)CCCC2)c1
2.1	10.0	CC(C)C(=O)Nc1ccc(-c2nc3cccnc3s2)cc1
-1.2	20.0	COc1ccc(C(=O)NC(C)C)cc1I
0.9	16.0	Cc1ccc(Cn2c(C)c3cn[nH]c(=O)c3c2C)cc1
nt	-18.0	Cc1ccccc1-n1ccnc1SCC(N)=O
nt	23.0	CC(Sc1nc2cc(Cl)ccc2c(=O)n1C(C)C)C(=O)Nc1ccc(N2CCOCC2)cc1 (stereo not drawn)
nt	10.0	O=c1nc(NC2CCCCC2)cn[nH]1

The list goes on.
MgrA-DNA mod	S aureus helic	Molecule
nt	-21.0	COC(=O)c1ccc(N2CCc3cc4ccc(C)cc4nc32)cc1
-2.9	5.0	CCOC(=O)CC(=O)Cc1nc(N)nc(Nc2ccc(C)c(C)c2)n1
0.1	20.0	Brc1ccc2ncnc(N3CCCCCC3)c2c1
-3.2	nt	Fc1cccc(F)c1CN1CCCCC1
-1.5	nt	C=C1SC(=Nc2c(C)cc(C)cc2C)N(C(=O)c2c(Cl)sc3ccccc23)C12CCCCC2
nt	-43.0	Cc1nc(NC2=NCN(CCCN3CCOCC3)CN2)nc2c(C)cccc12
nt	0.0	c1ccc2c(c1)NC1(CCCC1)n1c-2nc2ccccc21
-1.1	nt	Cn1cc(S(=O)(=O)Nc2ccccc2N2CCOCC2)c(C(F)(F)F)n1
nt	-32.0	COc1ccc(-c2noc(N3CC(C)CC(C)C3)n2)cc1OC (stereo not drawn)
0.7	24.0	CCOc1ccc(-c2nc(C#N)c(NCCCN(CC)CC)o2)cc1

New compounds follow
MgrA-DNA mod	S aureus helic	Molecule
5.8	11.0	O=C(NCCN1CCCc2ccccc21)c1cc(-c2cccs2)nc2ccccc12
-0.3	nt	COc1ccc(SCCC(=O)NCc2ccncc2)cc1
nt	-3.0	CCCCNS(=O)(=O)c1cccc(C(F)(F)F)c1
nt	21.0	CN1C(=O)C(=Cc2cn(CC(=O)O)c3ccccc23)C(=O)N(C)C1=S
-2.3	nt	Nc1nc(-c2ccc3c(c2)CCC(=O)N3)cs1
3.5	13.0	CC(=O)N(C)c1ccc(N=Nc2c(-c3ccccc3)[nH][nH]c2=O)cc1
nt	-18.0	CCC1CCCCN1CC(O)COc1ccc2c(c1)OCO2 (stereo not drawn)
nt	-20.0	FC(F)(F)c1ccc2ccccc2c1Cl
-1.5	nt	CCOC(=O)c1nc(C)sc1-c1ccnn1S(=O)(=O)c1ccc(Cl)cc1Cl
nt	2.0	Cc1noc(C)c1C(=O)OCC(=O)NC(c1ccccc1)c1ccccc1

Continued; the last 2 above are carried over.
MgrA-DNA mod	S aureus helic	Molecule
-1.5	nt	CCOC(=O)c1nc(C)sc1-c1ccnn1S(=O)(=O)c1ccc(Cl)cc1Cl
nt	2.0	Cc1noc(C)c1C(=O)OCC(=O)NC(c1ccccc1)c1ccccc1
24.8	nt	O=C1CCCC(=O)C1C(c1ccc(-c2cc(C(F)(F)F)ccc2Cl)o1)C1C(=O)CCCC1=O
nt	-36.0	CC(=C\c1ccccc1)/C=C1/SC(=S)N(CCC(=O)Nc2nc(C)cs2)C1=O
-0.1	-16.0	Cc1nc2cc(CCO)ccc2s1
nt	6.0	COCCNC(=O)c1cc2c(s1)-c1ccsc1CC2
-3.5	nt	NC(=O)C1CCN(C(=O)CCC(=O)O)CC1
nt	13.0	CCOC(=O)c1cc(NC(=O)SCC(=O)O)c(C)nc1C
nt	8.0	CCOc1cc(C(=O)NC2=C(C(=O)OC)SCC2)cc(OCC)c1OCC
nt	8.0	CC(C)(O)C1(C)c2ccccc2CCN1Cc1ccccc1 (stereo not drawn)
nt	-30.0	N#C/C(=C\C=C\c1ccco1)C(=O)Nc1cccc(Br)c1
nt	30.0	c1coc(CSCCNc2nc(-c3cccs3)nc3ccccc23)c1

More results follow.
MgrA-DNA mod	S aureus helic	Molecule
-2.7	nt	O=C(NC(=O)c1c(Cl)cccc1Cl)Oc1c(F)cccc1F
nt	0.0	CS/C(=C(/C#N)S(=O)(=O)C(C)C)N1CCCCC1
nt	28.0	C/C(=N\N=C(/N)SCc1cc(F)cc2c1OCOC2)c1ccc(C)nc1
0.1	nt	COc1cccc(/C=C2/SC(=S)N(C(C)C(=O)O)C2=O)c1 (stereo not drawn)
-3.5	-15.0	NC(=O)CC(NC(=O)c1ccccc1)C(=O)O (stereo not drawn)
nt	25.0	COC(=O)c1ccc2c(=O)[nH]c(COC(=O)c3ccccc3OCc3c(C)noc3C)nc2c1
-0.9	3.0	CCCN1C(=O)c2ccccc2CC1(C)C(=O)NC1CCCCCC1 (stereo not drawn)
-1.6	nt	O=S(=O)(Nc1ccc(Cl)cc1)c1cccc2nonc12
nt	-6.0	O=C(CSc1nc2ccccc2s1)OCC(=O)c1ccc[nH]1
nt	-2.0	CCOC(=O)C1CCN(C(=O)C(C)OC(=O)c2ccccc2O)CC1 (stereo not drawn)

An excerpt from above in order of their number in S aureus helic, rising:
| Structure | MgrA-DNA mod | S aureus helic |
| --- | --- | --- |
| CCCN1C(=O)c2ccccc2CC1(C)C(=O)NC1CCCCCC1 (stereo not drawn) | -0.9 | 3.0 |
| COC(=O)c1ccc2c(=O)[nH]c(COC(=O)c3ccccc3OCc3c(C)noc3C)nc2c1 | nt | 25.0 |
| C/C(=N\N=C(/N)SCc1cc(F)cc2c1OCOC2)c1ccc(C)nc1 | nt | 28.0 |

(cont.)
MgrA-DNA mod	S aureus helic	Molecule
3.0	-4.0	CCc1c(C)[nH]c(=S)c(C#N)c1C
nt	2.0	CN(C)S(=O)(=O)N(CC(=O)Nc1ccccc1F)c1ccccc1
-0.5	nt	Fc1ccc(CSc2nnc(-c3ccncc3)s2)cc1
-10.4	-285.0	COc1ccc(Nc2ccccc2N)cc1
-0.1	-5.0	COC(=O)C1CCCNC1=O (stereo not drawn)
-0.4	nt	Cc1c(C(=O)COc2nc(-c3cccs3)cc(C(F)(F)F)c2C#N)sc2ccccc12
nt	-4.0	NS(=O)(=O)c1ccc(CCNC(=O)C2CCCCN2S(=O)(=O)c2ccccc2)cc1 (stereo not drawn)
nt	-17.0	Cc1ccc(S(=O)(=O)n2cnc3cc(C)c(C)cc32)c(C)c1
0.9	12.0	CCN(c1ccc(C)c(C)c1)S(=O)(=O)c1cc(Br)cc2c1N(C(C)=O)C(C)C2 (stereo not drawn)
nt	21.0	CC(C)c1cc(=O)c2c(=O)n(-c3ccccc3)[nH]c2[nH]1

Full records from above. Screens in order: MgrA-DNA mod	S aureus helic
CN(C)S(=O)(=O)N(CC(=O)Nc1ccccc1F)c1ccccc1 across the screens: nt	2.0
Cc1c(C(=O)COc2nc(-c3cccs3)cc(C(F)(F)F)c2C#N)sc2ccccc12 across the screens: -0.4	nt
COC(=O)C1CCCNC1=O (stereo not drawn) across the screens: -0.1	-5.0
CCc1c(C)[nH]c(=S)c(C#N)c1C across the screens: 3.0	-4.0
Cc1ccc(S(=O)(=O)n2cnc3cc(C)c(C)cc32)c(C)c1 across the screens: nt	-17.0

(cont.)
MgrA-DNA mod	S aureus helic	Molecule
-4.7	17.0	O=C1Nc2ccccc2SC1CO (stereo not drawn)
4.3	nt	N#Cc1cc(-c2ccccc2)nc2ccc(Br)cc12
-3.2	nt	Cc1ccc(Nc2cc([Se]c3ccccc3)c(N)c3c2C(=O)c2ccccc2C3=O)cc1
0.3	-1.0	CCC(c1nnnn1CCOC)N1CCN(c2nc3ccccc3s2)CC1 (stereo not drawn)
-0.8	10.0	Cc1ccc2c(c1)c1c3n2CCN(C(=O)Cn2c(-c4ccccc4)noc2=O)C3CCC1 (stereo not drawn)
nt	-149.0	CCN1CCN(c2cc(NCC(=O)O)c3c4c(onc24)-c2ccccc2C3=O)CC1
2.2	nt	Cc1nn(Cc2n[nH]c(=S)o2)c(C)c1Br
2.2	8.0	COc1ccc(N2COc3ccc(OC)cc3C2)cc1
3.2	nt	CC1(C)CC(=O)c2cnc(SCCS(=O)(=O)c3ccc(Cl)cc3)nc2C1
3.7	nt	COc1cc(Br)cc2cc(C(=O)O)c(=O)oc12

Carrying on:
MgrA-DNA mod	S aureus helic	Molecule
nt	-7.0	Cc1ccccc1N=C1SCCN1C(=O)c1ccc2c(c1)OCCO2
nt	5.0	CN1CCN(C(=O)c2ccc3c(c2)N(Cc2ccccc2F)C(=O)c2ccccc2S3(=O)=O)CC1
-1.3	nt	COc1ccc2[nH]c(C)cc2c1
nt	-7.0	CN(CCNC(=O)Cn1ncc2c3ccccc3n(C)c2c1=O)C1CCCCC1
nt	18.0	O=C(Nc1cccc2ncccc12)C1CC(=O)N(Cc2ccco2)C1 (stereo not drawn)
5.2	4.0	CCOc1ccccc1C(=O)NCc1cn2ccccc2n1
2.4	-1.0	CCc1ccc(NC(=O)Nc2ccccc2)cc1
nt	-16.0	Cc1ccc(C)c(S(=O)(=O)n2ccc(C)n2)c1
nt	6.0	CC(C)CC(=O)Nc1ccc(C(=O)COC(=O)c2ccc(-n3cnnn3)cc2)cc1
nt	3.0	CC1CCN(C(=O)COc2ccc(-c3nn(C)c(=O)c4ccccc34)cc2)CC1

Next section.
MgrA-DNA mod	S aureus helic	Molecule
nt	8.0	CCc1ccccc1S(=O)(=O)Cc1ccc(C(=O)NCc2cccs2)o1
1.9	3.0	NC(=O)c1ccccc1N/C=C/C(=O)c1ccccc1
-0.7	2.0	O=S(=O)(NCc1nc(-c2ccccc2)no1)c1ccccc1
nt	28.0	CCC(Sc1nc2cc(OC)c(OC)cc2c2nc(-c3ccccc3)nn12)C(=O)NCc1ccco1 (stereo not drawn)
4.2	6.0	COc1ccc(NC(=O)C(C)n2sc3ccccc3c2=O)cc1 (stereo not drawn)
nt	6.0	CCCS(=O)(=O)N1CCCC(C(=O)NC(C)C)C1 (stereo not drawn)
nt	-16.0	CCCCN=C1SCC(c2c[nH]c3ccccc23)=NN1C
nt	25.0	COCCn1c(SCc2cc(=O)n3ccsc3n2)nnc1-c1ccncc1
-3.0	nt	COc1ccc(C2C(C#N)=C(N)OC(C3CC3)=C2C#N)cc1 (stereo not drawn)
-10.3	nt	CC1(C)OC2C(CSC#N)OC(n3cnc4c(=O)[nH]cnc43)C2O1 (stereo not drawn)

(listing goes on)
MgrA-DNA mod	S aureus helic	Molecule
9.2	-8.0	CCN(CC)c1ccc2cc(C(=O)Nc3ccc(NC(C)=O)cc3)c(=O)oc2c1
-0.1	nt	COc1ccc(Cl)cc1-c1nc(C=Nc2ccc(Br)cc2)c(O)o1
0.5	10.0	OCC#Cc1cnc2ccccc2c1
0.9	-11.0	O=c1oc(-c2ccccc2Br)nc2sc3c(c12)CCC3
nt	15.0	COC(=O)N/N=C/c1ccc2c(c1)OCO2
13.0	5.0	CCOC(=O)c1c(Nc2ccc(OC)c(Cl)c2)n[nH]c1C
3.0	10.0	O=c1n(CCSc2nnnn2-c2ccccc2)nnn1-c1ccccc1
-0.6	nt	CC1(C)CC(=O)c2ccc(OCC(=O)O)cc2O1
nt	-8.0	O=P1(O)C=C(c2ccccc2)OC(c2ccccc2)=C1
nt	-14.0	CC(=O)N/N=C(\C)CCc1ccccc1

Next section:
MgrA-DNA mod	S aureus helic	Molecule
-1.1	3.0	Cc1ccc2nc(-c3ccc(Cl)c(NC(=O)c4ccc5c(c4)OCCO5)c3)oc2c1
nt	2.0	CN(C)CC(C)(C)CNCc1ccc(-n2cnc3ccccc32)cc1
nt	10.0	c1ccc(-c2csc(N3CCNCC3)n2)cc1
19.9	nt	N#Cc1c(S/C=C(\O)c2ccccc2)nc2c(c1C(F)(F)F)CCCC2
nt	15.0	CN(C)c1ccc(NC(=O)/C=C\C(=O)N2CCOCC2)cc1
nt	-2.0	COc1ccccc1CNC(=O)c1ccc2c(c1)n(C)c(=O)c(=O)n2C
nt	-7.0	COc1ccc(CCNC(=O)CSc2ncnc3ccccc23)cc1OC
2.0	3.0	CCOC(=O)c1sc(=NC(=O)c2ccc(OCC)cc2)n(C)c1C
nt	-5.0	Cc1cccc(NC(=O)CSc2nncc(=O)[nH]2)c1
nt	5.0	COc1ccc(C2CCCCCN2C(=O)c2cccc(N3CCCC3=O)c2)cc1 (stereo not drawn)
-1.8	nt	CCOC(=O)Cn1c(=O)c(-c2cc([N+](=O)[O-])ccc2NC)nc2cc3ccccc3cc21
-1.4	nt	CC(C)(CC(=O)O)CC(=O)N1CCN(c2nc3ccc(Cl)cc3s2)CC1
nt	-22.0	O=C1CC(c2ccccc2Cl)NC(=O)N1 (stereo not drawn)
